Bioassay records deposited in PubChem by National Center for Advancing Translational Sciences (NCATS).
Eya2 inh = qHTS Assay for Inhibitors of the Phosphatase Activity of Eya2; recombinant Eya2, OMFP fluorescence dephosphorylation (OMFP is methylfluorescein phosphate); Potency, µM (series often up to 76.9 µM), for the others: at the top dose activity, negative = inhibition, actives largely listed as inhibitors; 0.006% of 330,000 active; note: potency is the fitted concentration of half-maximal effect; % is set by controls: 0 for no effect and ±100 for the full control effect
Target sequence (O00167 whole entry, looked up): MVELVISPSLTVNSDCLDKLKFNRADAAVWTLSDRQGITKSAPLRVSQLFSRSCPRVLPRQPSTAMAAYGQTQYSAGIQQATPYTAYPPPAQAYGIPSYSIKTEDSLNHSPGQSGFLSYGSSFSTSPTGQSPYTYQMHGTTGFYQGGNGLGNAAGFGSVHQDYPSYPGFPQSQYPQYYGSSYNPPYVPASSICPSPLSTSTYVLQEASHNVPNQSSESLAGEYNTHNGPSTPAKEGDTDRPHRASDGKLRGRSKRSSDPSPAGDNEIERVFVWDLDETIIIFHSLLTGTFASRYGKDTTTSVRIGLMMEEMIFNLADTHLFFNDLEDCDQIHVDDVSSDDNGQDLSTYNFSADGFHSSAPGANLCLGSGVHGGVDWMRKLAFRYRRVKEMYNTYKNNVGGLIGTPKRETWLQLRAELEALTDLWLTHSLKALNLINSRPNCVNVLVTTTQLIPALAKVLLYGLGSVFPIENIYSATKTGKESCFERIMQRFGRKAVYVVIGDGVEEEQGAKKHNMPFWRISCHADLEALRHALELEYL
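Eya2 protein (added as 0.2 uM solution) was preincubated with compound for 10 min at ambient temperature in 50 mM HEPES pH 7.5, 50 mM NaCl, 5 uM MgCl2, 0.05% BSA, 1 mM DTT. OMFP (added at 50 uM) then reacted 10 min; fluorescence read at 485/525 nm.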
KCNH2 WT inh = qHTS for Inhibitors of KCHN2 3.1: Wildtype qHTS | Voltage-gated inwardly rectifying potassium channel KCNH2 (Homo sapiens), Q12809 | U2OS, BacMam KCNH2, thallium flux FluxOr; active compounds read low | activity change, % at 1.84 µM | 0.37% of 340,000 active;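 active = maximum activity change below -70%; inconclusive = maximum activity change between -70% and -50%; inactive = maximum activity change above -50%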; note: % is set by controls: 0 for no effect and ±100 for the full control effect
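U2OS cells were transduced with wild-type KCNH2 virus (2.03 x 10^8 / mL) for 4 h at room temperature, then cultured overnight at 37 C. Thallium flux was read with FluxOr dye. Rate constants were normalized to DMSO controls.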
PKM2 act = qHTS Assay for Activators of Human Muscle isoform 2 Pyruvate Kinase. Pyruvate kinase PKM (Homo sapiens), P14618. purified PKM2, Kinase-Glo ATP luminescence, activation; response scale: 0% is enzyme alone, no compound. Potency, µM (titrated, usually from 57.5 µM), without a hit: top-dose activation, hits mostly activators. 0.34% of 260,000 active; note: potency is the fitted concentration of half-maximal effect; % is set by controls: 0 for no effect and ±100 for the full control effect; nearly all actives have a fitted effect of over 55% in size
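Purified hPK-M2 (>95%) run at intermediate activity with 0.1 mM ADP and 0.5 mM PEP in 50 mM imidazole pH 7.2, KCl, MgCl2; 1 h room temperature. ATP formed read by Kinase-Glo luminescence; normalized to uninhibited and no-enzyme controls.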
TSHR antagonist = Antagonists of the Thyroid Stimulating Hormone Receptor: HTS campaign | Thyrotropin receptor (Homo sapiens), P16473 | TSHR-expressing cells, TSH-stimulated cAMP HTRF, 2 h; active compounds read low | activity change, negative = inhibition, % at 11.5 µM | 0.2% of 330,000 active | AID 504810, 2011;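 active = activity change below a set negative limit, meaning inhibition stronger than a set level, cut at about -70% in these data; inconclusive = activity change between two set negative limits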; note: % is set by controls: 0 for no effect and ±100 for the full control effect
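Read-out is FRET at 665 nm (cryptate excitation 337 nm) from a cryptate-tagged anti-cAMP antibody, competed by cell cAMP against cAMP-d2. Compounds are tested on freshly harvested TSHR cells challenged with 4nM TSH (EC80) for 2 hours at 37 deg C.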
MBNL1-CUG inh = qHTS Assay for Inhibitors of MBNL1-poly(CUG) RNA binding; Muscleblind-like protein 1 (Homo sapiens), Q9NR56; Potency, µM (series often up to 57.5 µM), without a hit: top-dose activity change, negative = inhibition, actives largely listed as inhibitors; AID 2675, 2010; 0.036% of 280,000 active; TR-FRET MBNL1-His/biotin-(CUG)12 binding, 665/545 ratio; active = well fitted inhibition curve with a large enough effect in the signal ratio, with a control signal flat, not every such curve was filed as active; inconclusive = small, poorly fitted or top-dose-only effect, or effect the other way, or a change in a side signal; inactive = no such curve, though single readings can be large or run the other way; the % refers to the signal ratio; note: potency is the fitted concentration of half-maximal effect; % is set by controls: 0 for no effect and ±100 for the full control effect
Target sequence (Q9NR56 whole entry, looked up): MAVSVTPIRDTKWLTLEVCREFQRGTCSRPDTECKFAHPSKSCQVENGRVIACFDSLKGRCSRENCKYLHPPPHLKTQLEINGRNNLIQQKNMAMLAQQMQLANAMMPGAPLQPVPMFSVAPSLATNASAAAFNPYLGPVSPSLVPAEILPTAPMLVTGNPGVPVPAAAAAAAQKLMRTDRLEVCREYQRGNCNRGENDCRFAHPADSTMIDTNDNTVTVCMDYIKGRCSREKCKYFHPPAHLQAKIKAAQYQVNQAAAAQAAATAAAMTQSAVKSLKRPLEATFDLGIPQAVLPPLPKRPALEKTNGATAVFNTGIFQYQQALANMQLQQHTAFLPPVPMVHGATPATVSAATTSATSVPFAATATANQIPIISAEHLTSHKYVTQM
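TR-FRET between His-tagged MBNL1 and biotin-(CUG)12 RNA, detected with Tb anti-His antibody (0.055 ng/ul) and streptavidin-XL665 (5 nM), 60 min at room temperature. Compounds titrated 92 nM to 58 uM; 665/545 nm ratio normalized to buffer and complex controls.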
Mito fusion yeast = qHTS Assay for Small Molecule Inhibitors of Mitochondrial Division or Activators of Mitochondrial Fusion; Potency, µM (top dose mostly 46.1 µM), for the others: at the top dose growth rescue (activation), usual class: activators; 0.23% of 320,000 active; AID 485298, 2010; S. cerevisiae fusion-defective mutant growth rescue, CellTiterGlo 48 h;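 note: potency is the fitted concentration of half-maximal effect; % of control where 0% means no effect; nearly all actives have a fitted effect of over 45% in size; temperature-sensitive fusion mutants such as fzo1-1 at 37 °C on non-fermentable ethanol glycerol medium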
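Growth-rescue viability read-out: after 48 h at the non-permissive 37C in glycerol/ethanol YPEG, yeast mitochondrial fusion mutants are measured by CellTiterGlo luminescence; compounds (23 nl pinned per well) restoring growth score as division inhibitors or fusion activators.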
ASM inhibitor = Inhibitors of Secretory Acid Sphingomyelinase (S-ASM): qHTS; placental ASM, HMU-PC fluorogenic substrate, 60 min; Potency, µM (titrated, usually from 57.5 µM), for inactives: at the top dose activity change, negative = inhibition, hits mostly inhibitors; 0.006% of 340,000 active; AID 504937, 2011; note: potency is the fitted concentration of half-maximal effect
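Fluorescence read-out (Ex 386 nm, Em 447 nm) after stopping the reaction at pH 10. Enzyme: ASM from human placenta; substrate HMU-PC0, 9 uM final; 60 min, 37 °C. Compound preincubation 10 min, ambient temperature.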
USP2a block = qHTS Assay for Inhibitors of Ubiquitin-specific Protease USP2a Using CHOP2 as the Reporter | USP2 core, Ub-CHOP2 coupled fluorogenic reporter, 485/531 | Potency, µM (doses to about 38.3 µM), without a hit: at the top dose activity change, negative = inhibition, actives largely listed as inhibitors | 0.01% of 330,000 active;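 note: potency is the fitted concentration of half-maximal effect; plate controls were DMSO wells for no effect and full inhibition by NEM control for full effect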
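Cell-free coupled assay: 10nM USP2 core preincubated 30min RT with compound in Tris-HCl pH 8.0/CaCl2/CHAPS buffer, then 25nM Ub-CHOP2 and 25nM reporter substrate; fluorescence (Ex 485/Em 531) read after 60min RT, normalized to NEM inhibition, concentration-response curves fitted.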
GALK inhibitor = qHTS Assay for Inhibitors of Human Galactokinase (GALK) | P51570 | Purified GALK, Kinase-Glo residual ATP luminescence | Potency, µM (top dose mostly 57.5 µM), for inactives: top-dose activity change, negative = inhibition, usual class: inhibitors | 0.007% of 270,000 active | AID 1868, 2009; note: potency is the fitted concentration of half-maximal effect; % is set by controls: 0 for no effect and ±100 for the full control effect
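The enzyme phosphorylates galactose (100 uM) using ATP (35 uM); inhibition is detected as higher residual ATP, quantified by bioluminescence after 1 h reaction at room temperature, pH 8.0.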
Chronic BCR inh = qHTS Assay to Find Inhibitors of Chronic Active B-Cell Receptor Signaling; Potency, µM (highest dose often 46.1 µM), for inactives: at the highest dose ratio change, negative = lower green/red ratio, most hits filed as inhibitors; ABC-DLBCL IkBa-CBG/CBR reporter, luminescence ratio, 4 h; AID 493014, 2011; 0.05% of 340,000 active; active = well fitted inhibition curve with a large enough effect in the signal ratio, with a control signal flat, not every such curve was filed as active; inconclusive = small, poorly fitted or top-dose-only effect, or effect the other way, or a change in a side signal; the % refers to the signal ratio;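 note: potency is the fitted concentration of half-maximal effect; plate controls were basal doxycycline-induced cells for no effect and cells given 10 µM MG132 for full effect; MG132 reads +100%, hits lower the ratio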
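TMD8 ABC-DLBCL cells carrying doxycycline-inducible green luciferase fused to IkappaBalpha plus unfused red luciferase were exposed to compounds (up to 46 uM) for 4 hrs at 37C. Activity came from the overlap-corrected green/red luminescence ratio.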
Numbers without * were called inactive; ? = inconclusive; / = no result given; [ ] = another dose, or the depositor's remark. Unless noted, calls come from the whole dose curve; as a rule, active = well fitted curve in the direction sought with a large enough effect; inconclusive = small, poorly fitted or top-dose-only effect, or another doubt; inactive = no such curve, though single readings can be large; an effect the other way counts as inactive or inconclusive.

Codes – A = Eya2 inh; B = KCNH2 WT inh; C = PKM2 act; D = TSHR antagonist; E = MBNL1-CUG inh; F = Mito fusion yeast; G = ASM inhibitor; H = USP2a block; I = GALK inhibitor; J = Chronic BCR inh
O=C(C(c1ccccc1)N1CCOCC1)N1CCOCC1 (stereo unspecified)
  A: /; B: -7; C: 3%; D: /; E: -12%; F: 13%; G: 4%; H: /; I: 1%; J: /
O=C(O)/C=C/C(=O)N1N=C(c2ccco2)CC1c1ccco1 (stereo unspecified)
  A: 9%; B: -4; C: /; D: 10; E: 15%; F: -3%; G: 6%; H: -7%; I: -1%; J: 3%
O=C(NC(=S)Nc1ccc(Cl)cn1)C(c1ccccc1)c1ccccc1
  A: -24%; B: -3; C: 7%; D: 10; E: -10%; F: -15%; G: -17%; H: -1%; I: -1%; J: 9%
Cc1nc2ccccc2c(=O)n1CCc1ccccc1
  A: -5%; B: -12; C: /; D: -16; E: -22%; F: 10%; G: 5%; H: 4%; I: 0%; J: 11%
C=CCn1c(COc2ccccc2)nnc1SCC(=O)Nc1ccc(S(N)(=O)=O)cc1
  A: 3%; B: 1; C: -3%; D: -7; E: -4%; F: 4%; G: 1%; H: 4%; I: 3%; J: -1%
Cc1ccc(-n2nnnc2SCC(=O)Nc2nc(-c3ccc(F)cc3)cs2)cc1C
  A: 7%; B: -4; C: 0%; D: -31; E: 1%; F: 1%; G: -1%; H: -3%; I: 0%; J: 4%
CC1CCN(S(=O)(=O)c2cn(CC(=O)Nc3ccc(OC(F)(F)F)cc3)cn2)CC1
  A: 10%; B: -13; C: -3%[0.46 µM]; D: 9; E: 0%; F: -3%; G: -2%; H: 0%; I: 7%; J: -5%
Cn1nc(C(=O)NCCN2CCOCC2)c2ccccc2c1=O
  A: -32%; B: 41; C: 2%; D: 11; E: 1%; F: 0%; G: -1%; H: 1%; I: 0%; J: 6%
Cc1ccc(-c2nn3cnnc3c3ccccc23)cc1C
  A: 8%; B: -1; C: 0%; D: -12; E: -1%; F: 2%; G: 3%; H: 9%; I: 1%; J: -2%
CC1=C(C(=O)Nc2cccnc2)C(c2cccnc2)n2ncnc2N1 (stereo unspecified)
  A: 2%; B: 9; C: -4%; D: 7; E: -8%; F: -4%; G: -2%; H: 4%; I: 4%; J: -1%
COc1cccc(C(O)c2nc3ccccc3n2C(C)C)c1 (stereo unspecified)
  A: 5%; B: 3; C: 3%; D: 8; E: 1%; F: 1%; G: -1%; H: 6%; I: 0%; J: -5%
COc1ccc(-c2nn3c(-c4ccccc4)nnc3s2)cc1OC
  A: 9%; B: -13; C: 1%; D: -4; E: 13%; F: 4%; G: -5%; H: -5%; I: 5%; J: ?
COc1cccc(/C=C2/Sc3ccc(C(=O)NCCN4CCCC4)cc3NC2=O)c1
  A: -1%; B: 16; C: /; D: -6; E: ?; F: 20%; G: -2%; H: -6%; I: 7%; J: -1%
CC1=C(C(N)=O)C(c2cccc(OCc3ccccc3)c2)n2nnnc2N1 (stereo unspecified)
  A: 11%; B: 8; C: 0%; D: -10; E: 2%; F: -2%; G: 8%; H: 0%; I: -4%; J: ?
COc1ccccc1N1CCN(CCCCOc2c(OC)cccc2OC)CC1
  A: -8%; B: 46; C: /; D: 4; E: -10%; F: -2%; G: 6%; H: 1%; I: 3%; J: -1%

More compounds.
Codes – A = Eya2 inh; B = KCNH2 WT inh; C = PKM2 act; D = TSHR antagonist; E = MBNL1-CUG inh; F = Mito fusion yeast; G = ASM inhibitor; H = USP2a block; I = GALK inhibitor; J = Chronic BCR inh
CC(C)Cc1nc2n[nH]c(N)c2c2c1CCC2
  A: -16%; B: 5; C: -6%; D: 2; E: -5%; F: 3%; G: -1%; H: -1%; I: 1%; J: -17%
CCn1c(CCNC(=O)c2ccc(OC)cc2)nnc1SCC(=O)Nc1ccccc1F
  A: -3%; B: 2; C: 0%; D: 5; E: -10%; F: -5%; G: 13%; H: 0%; I: 2%; J: 4%
COc1cccc(/C=N/n2cnnc2)c1OCc1ccccc1
  A: 15%; B: 4; C: 1%; D: 6; E: -1%; F: 5%; G: -2%; H: 6%; I: 0%; J: 0%
O=C(/C=C/c1cccs1)N1CCc2ccccc21
  A: 0%; B: 2; C: -40%; D: -10; E: ?; F: 18%; G: -1%; H: -1%; I: 8%; J: ?
COc1cccc(/C=C2/Sc3ccc(C(=O)NCCN4CCCCCC4)cc3NC2=O)c1
  A: -18%; B: -8; C: 9%[0.46 µM]; D: -42; E: ?; F: 12%; G: -15%; H: -3%; I: 3%; J: 9%
O=C(CNCc1cccc(Cl)c1)N1CCc2ccccc2C1
  A: -21%; B: 0; C: /; D: -4; E: -4%; F: -8%; G: 6%; H: 0%; I: /; J: 0%
COc1ccc(-c2csc(NC(=O)C3CCCCN3S(=O)(=O)c3ccccc3)n2)cc1 (stereo unspecified)
  A: -3%; B: 1; C: 2%; D: -20; E: 8%; F: 21%; G: -9%; H: -13%; I: -1%; J: 4%
COc1ccc(N=CC2=C(O)CCCC2=O)cc1
  A: -22%; B: -1; C: -10%; D: 4; E: 6%; F: -4%; G: 2%; H: 2%; I: 1%; J: -16%
COc1ccc(CCN2C(=O)c3[nH]nc(-c4ccccc4O)c3C2c2ccc(C)cc2)cc1OC (stereo unspecified)
  A: 14%; B: 3; C: -5%; D: -2; E: 7%; F: 3%; G: -24%; H: 2%; I: 2%; J: ?

Compounds from the list above that contain a halogen, in the order listed:
Codes – A = Eya2 inh; B = KCNH2 WT inh; C = PKM2 act; D = TSHR antagonist; E = MBNL1-CUG inh; F = Mito fusion yeast; G = ASM inhibitor; H = USP2a block; I = GALK inhibitor; J = Chronic BCR inh
O=C(NC(=S)Nc1ccc(Cl)cn1)C(c1ccccc1)c1ccccc1
  A: -24%; B: -3; C: 7%; D: 10; E: -10%; F: -15%; G: -17%; H: -1%; I: -1%; J: 9%
Cc1ccc(-n2nnnc2SCC(=O)Nc2nc(-c3ccc(F)cc3)cs2)cc1C
  A: 7%; B: -4; C: 0%; D: -31; E: 1%; F: 1%; G: -1%; H: -3%; I: 0%; J: 4%
CC1CCN(S(=O)(=O)c2cn(CC(=O)Nc3ccc(OC(F)(F)F)cc3)cn2)CC1
  A: 10%; B: -13; C: -3%[0.46 µM]; D: 9; E: 0%; F: -3%; G: -2%; H: 0%; I: 7%; J: -5%
CCn1c(CCNC(=O)c2ccc(OC)cc2)nnc1SCC(=O)Nc1ccccc1F
  A: -3%; B: 2; C: 0%; D: 5; E: -10%; F: -5%; G: 13%; H: 0%; I: 2%; J: 4%
O=C(CNCc1cccc(Cl)c1)N1CCc2ccccc2C1
  A: -21%; B: 0; C: /; D: -4; E: -4%; F: -8%; G: 6%; H: 0%; I: /; J: 0%

An excerpt. The share of hits here may be higher or lower than overall.
